Compound activity as filed in PubChem.
Rango-impB inh – qHTS Assay for Inhibitors of Rango (Ran-regulated importin-beta cargo) - Importin beta complex formation | actives 0.031% (n = 340,000) | AID 540263, 2011 | Potency, µM (doses to about 92.2 µM), without a hit: at the top dose inhibition of complex formation | Rango CFP/YFP FRET sensor + importin beta, 45 min; active = rising FRET ratio curve, often small or poorly fitted; inconclusive = mostly compound fluorescence or quenching in the first reads; inactive = flat curves in all reads;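 further: potency means the concentration at half of the fitted maximal effect; 0% = DMSO wells and 100% = buffer wells lacking importin beta; nearly all actives have a fitted effect of over 15% in size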
Target sequence (Q14974 whole entry, looked up): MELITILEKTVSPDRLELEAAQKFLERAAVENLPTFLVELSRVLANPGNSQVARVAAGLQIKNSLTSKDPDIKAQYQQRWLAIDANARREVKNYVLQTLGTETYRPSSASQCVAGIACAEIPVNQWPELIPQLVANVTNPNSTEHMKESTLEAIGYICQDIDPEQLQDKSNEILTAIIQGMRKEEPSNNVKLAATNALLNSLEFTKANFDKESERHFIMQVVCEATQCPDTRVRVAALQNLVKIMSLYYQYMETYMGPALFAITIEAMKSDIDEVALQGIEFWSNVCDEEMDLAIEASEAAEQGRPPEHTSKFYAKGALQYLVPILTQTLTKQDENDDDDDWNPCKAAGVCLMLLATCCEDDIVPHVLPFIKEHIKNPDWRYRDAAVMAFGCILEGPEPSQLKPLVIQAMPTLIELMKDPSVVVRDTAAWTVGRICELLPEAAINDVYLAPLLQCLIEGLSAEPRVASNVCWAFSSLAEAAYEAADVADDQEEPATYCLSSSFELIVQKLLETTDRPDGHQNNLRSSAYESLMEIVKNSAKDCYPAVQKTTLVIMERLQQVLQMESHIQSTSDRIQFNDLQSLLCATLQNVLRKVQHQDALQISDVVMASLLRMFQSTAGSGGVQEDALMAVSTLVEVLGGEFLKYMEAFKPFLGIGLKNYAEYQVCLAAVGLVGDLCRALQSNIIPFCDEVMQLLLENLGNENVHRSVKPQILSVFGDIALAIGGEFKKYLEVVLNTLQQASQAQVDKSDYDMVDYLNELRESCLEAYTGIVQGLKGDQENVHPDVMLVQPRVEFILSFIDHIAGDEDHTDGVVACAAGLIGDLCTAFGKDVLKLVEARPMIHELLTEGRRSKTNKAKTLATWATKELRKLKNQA
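FRET biosensor Rango (snurportin 1 IBB between N-terminal EYFP and C-terminal Cerulean), 50 nM in PBS/1 mM DTT/0.02% Tween-20/0.1% BSA, preincubated 5 min RT with compound; 0.125 microM importin beta added, 45 min RT, CFP/YFP FRET ratio read.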
miR-21 FLuc – qHTS Assay for Modulators of miRNAs and/orActivators of miR-21; AID 2288, 2010; HeLa miR-21 FLuc reporter, luciferase, 48 h; Potency, µM (series often up to 38.3 µM), inactives show at the highest dose reporter change, positive = more light; 340,000 tested, under 10 active; active = well fitted rising curve with a large enough effect; inconclusive = small, poorly fitted or top-dose-only effect; inactive = no such curve, though single readings can be large or run the other way;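 further: % of control where 0% means no effect; miR-21 action dims this reporter so a rising signal means less miR-21 action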
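Compounds were titrated across several concentrations (up to approximately 40 uM) and incubated 48 hours with HeLa miR-21-FLuc reporter cells (miR-21 target sequence downstream of FLuc, endogenous miR-21). Readout was firefly luciferase luminescence after lytic detection reagent.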
GLA inh pH 4.5 – qHTS Assay for Inhibitors of Human alpha-Galactosidase at pH 4.5; Alpha-galactosidase A (Homo sapiens), P06280; purified enzyme, 4-MU-alpha-Gal fluorescence, pH 4.5; activity change, negative = inhibition, % at 105 µM; 230,000 tested, under 10 active; AID 1467, 2008; inconclusive = small, poorly fitted or top-dose-only inhibition, or a rising curve; inactive = flat fitted curve, though single readings scatter; no compound was filed as active;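 further: 0% = full activity with enzyme and -100% = basal without enzyme; dose as in the result columns while the protocol names 77 µM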
Rango dissoc inh – qHTS Assay for Inhibitors of RanGTP induced Rango (Ran-regulated importin-beta cargo) - Importin beta complex dissociation; actives 0.071% (n = 340,000); Biochemical FRET Rango-importin beta, RanGTP-induced dissociation; Potency, µM (series often up to 46.1 µM), without a hit: at the highest dose activity change, negative = inhibition; Snurportin-1 (Homo sapiens) + GTP-binding nuclear protein Ran (Homo sapiens) + Importin …; active means falling FRET ratio curve, often poorly fitted, with flat reads before Ran was added; inconclusive means other falling curves, or compound fluorescence or quenching; inactive means flat or rising ratio curve;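 further: potency means the concentration at half of the fitted maximal effect; % of control where 0% means no effect; nearly all actives have a fitted effect of over 45% in size; -100% = wells without RanGTP and RCC1; the record marks most hits as doubtful in a second field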
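Rango FRET biosensor (snurportin-1 IBB flanked by N-terminal EYFP and C-terminal CFP10) at 0.1 uM, with 0.25 uM importin beta in PBS, 1mM DTT, 0.02% Tween-20, 0.1% BSA. 0.6 uM Ran, 2mM GTP and 0.2 uM RCC1 were then added for 45 min at room temperature. Inhibition read as loss of FRET rise.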
* marks the source's active call; other numbers are inactive results; ? = inconclusive; . = no result given; & = joins results of further samples.

Values in the order – Rango dissoc inh | miR-21 FLuc | GLA inh pH 4.5 | Rango-impB inh
COc1ccccc1NCC(=O)N/N=C(\C)c1ccc(Br)s1
    1% | -9% | -4 | 5.0%
COc1cccc(C(=O)c2sc(NC(C)C)nc2N)c1
    -12% | 12% | -6 | 1.6%
Cc1ccc(N(CC(=O)NC(C)C)C(=O)CCC(=O)Nc2nccs2)cc1C
    10% | 3% | . | 0.8%
O=C(Nc1ccc(F)cc1)c1nn(-c2ccccc2)c(=O)cc1Cl
    32% | ? | 3 | 4.7%
Cc1nc2c(ccc3c2ccc2nc(C)sc23)s1
    -8% | -9% | 6 | -0.2%
O=C(OCCN=C1NS(=O)(=O)c2ccccc21)c1cccs1
    5% | 0% | -3 | 0.0%
CCn1c(=O)c2c(n3cnnc13)-c1ccccc1CC21CCCCC1
    -9% | -5% | 3 | 0.1%
COc1cccc(-c2sc3ccc(OC)cc3c2-c2ccc(OCCN3CCCCC3)cc2)c1
    3% | . | . | 2.8%
Cc1cnc(NC(=O)CCCNC(=O)c2ccc(Cl)cc2)s1
    -15% | . | . | 1.3%
Cc1ccc(C(=O)OCCOc2cccc(Cl)c2)cc1S(=O)(=O)N1CCOCC1
    -2% | . | . | -0.4%
Cc1ccc(NC(=O)C2CCCN(S(=O)(=O)c3cccnc3)C2)c(C)c1 (configuration not stated)
    -1% | 0% | . | 1.2%
CC1(C)C[C@@H](O)[C@]2(C)CC[C@]3(C)C(=CCC4[C@@]5(C)CC[C@H](O)[C@](C)(CO)C5CC[C@]43C)[C@@H]2C1 (some centres not stated)
    2% | . | . | 5.5%
O=C(NCCCN1CCOCC1)c1cc2c(s1)CCC2
    2% | -24% | -4 | -1.6%
CCOc1ccccc1NC(=O)c1nnn(CC(=O)Nc2cc(C)cc(C)c2)c1N
    17% | -1% | . | 0.0%
S=C(NCc1ccco1)Nc1ccc(Br)cn1
    -6% | -14% | . | -2.0%
CCCNC(=S)N1CCC(C(=O)c2ccc(Cl)cc2)CC1
    7% | 18% | . | 1.4%
Cc1nc2ccc3nc(NC(=O)C4COc5ccccc5O4)sc3c2s1 (configuration not stated)
    4% | -8% | 3 | ?
O=C(CSCc1ccc(Br)cc1)Nc1ccc(S(=O)(=O)N2CCOCC2)cc1
    11% | -7% | -4 | -0.5%
Cc1ccc(/C=C/C(=O)Nc2ccc([N+](=O)[O-])cc2)o1
    -7% | -10% | 7 | 8.0%
CC(C)CCn1c(SCC(=O)NC2CC2)nc2cc(Cl)ccc2c1=O
    20% | . | . | 0.2%
CCOCCCNCC(=O)NC1(C)C2CCC(C2)C1(C)C (configuration not stated)
    -2% | 0% | 0 | 0.8%
COc1cccc(/C=N/NC(=O)C(C)n2nc(C)c([N+](=O)[O-])c2C)c1O (configuration not stated)
    6% | 9% | 0 | -1.7%
Cc1cc(C)cc(-n2c(C)cc(/C=N/NC(=O)c3cccc([N+](=O)[O-])c3C)c2C)c1
    1% | -7% | 5 | -3.5%
CCOc1ccc(C(=O)NC(=S)Nc2cccc(NC(=O)c3ccco3)c2)cc1[N+](=O)[O-]
    -20% | -1% | -8 | 3.8%
O=C(CCc1ccccc1)c1ccc2c(c1)OCCCO2
    4% | -62% | 2 | 2.3%
CCCCc1cc(=O)oc2cc(OCC(=O)N(CC)CC)c(Cl)cc12
    25% | -2% | 4 | 3.3%
CCOc1ccc(OCC)c(NC(=O)CNS(=O)(=O)c2cccs2)c1
    -8% | -7% | -5 | 0.4%
CCN(C(=O)Cn1c(Cl)nc2c1c(=O)n(C)c(=O)n2C)C1CCCCC1
    -4% | . | . | -2.9%
CC1CCN(S(=O)(=O)c2ccc(S(=O)(=O)NCc3ccccc3)cc2)CC1
    8% | 1% | 4 | 2.2%
CC1(C)CC(C)(c2ccc(O)cc2O)N(c2ccc3ccccc3c2)C(=S)N1 (configuration not stated)
    14% | -6% | 0 | -0.8%
CCc1cc(=O)oc2cc(OCC(=O)N3CCc4ccccc43)ccc12
    . | -4% | 9 | .
O=C1C=C(c2cc3ccccc3o2)C[C@@H](c2ccc(F)cc2)C1
    4% | . | . | -3.0%
CCN(CC)CCNC(=O)c1nn(-c2ccc(Cl)cc2)c2c1CCc1cc(OC)ccc1-2
    -8% | . | . | 7.4%
O=C(CN1CCOCC1)NNC(=S)Nc1ccccc1
    -7% | 0% | 4 | 4.5%
COc1cnc(SCC(=O)O)[nH]c1=O
    -1% | -2% | -7 | -1.9%
O=C(Cc1ccccc1)NC(=S)Nc1cccc(C(F)(F)F)c1
    -4% | 4% | -8 | 8.0%
COc1cc(C=C2C(=O)c3ccccc3C2=O)cc(OC)c1OC
    0% | -38% | -8 | ?
Cc1ccc(C(=O)OC(C(=O)O)C(OC(=O)c2ccc(C)cc2)C(=O)O)cc1 (configuration not stated)
    -7% | . | . | -0.8%
Cc1cccc(C(=O)NC(C)C(=O)NC(c2nc3ccccc3[nH]2)C(C)C)c1 (configuration not stated)
    4% | . | . | -0.7%
O=C1C2C3C=CC(C3)C2C(=O)N1c1cccnc1 (configuration not stated)
    10% | -6% | 8 | 0.8%
Cc1c(Cl)cccc1NC(=O)CCN1C(=O)NC(C)(C)C1=O
    22% | . | . | 0.3%
CCOC(=O)N1CCN(C(=O)/C(=C/c2cccs2)NC(=O)c2cccs2)CC1
    8% | -12% | 3 | -3.4%
Cc1ccc(C(=O)N(C)CC(=O)Nc2cccc(C)c2C)o1
    0% | 4% | . | 4.4%
CCCCCCCOC(=O)c1ccc(OC(=O)c2cccnc2)cc1
    -6% | -38% | 11 | -0.9%
Cc1c(Cl)cccc1NC(=O)NCc1cccnc1
    -4% | -14% | . | 0.6%
O=C(NCCO)c1ccc2[nH]c3ccccc3c2c1
    2% | -33% | -2 | -3.5%
O=C(NCC(c1ccco1)N1CCc2ccccc2C1)C(=O)Nc1ccccc1F (configuration not stated)
    22% | . | . | 1.8%
C=CCOC(=O)C1=C(C)N=C2SCCC(=O)N2C1/C=C/c1ccccc1 (configuration not stated)
    0% | -7% | -2 | -0.4%
Cc1ccc(C(=O)n2c3ccccc3c3ccccc32)cc1
    -1% | -19% | -1 | 9.3%
CCC1Sc2ccc(S(=O)(=O)CCC(=O)Nc3ccc(C(=O)OC)cc3)cc2NC1=O (configuration not stated)
    0% | 15% | . | 4.1%

(next part)
Values in the order – Rango dissoc inh | miR-21 FLuc | GLA inh pH 4.5 | Rango-impB inh
Cc1ccc(C(C)C)cc1OCCOCCN1CCCC1
    0% | -2% | -2 | 0.4%
Cc1cc(Oc2ccc(=O)n(C)n2)nc(SCc2ccccc2)n1
    -2% | -1% | 1 | 1.6%
CC(C)[C@H]1COCCS(=O)(=O)N1Cc1ccccc1
    -10% | . | . | -0.6%
O=C(Cc1ccc(NC(=O)C2CCN(C(=O)C3CCC3)CC2)cc1)Nc1cccc(C(=O)N2CCCC2)c1
    10% | . | . | -2.5%
CCC(=O)Nc1ccc(C(=O)NNC(=O)c2ccccc2)cc1
    4% | 3% | 9 | -5.0%
Cc1cc(=O)n2nc(-c3ccccc3)sc2n1
    3% | -37% | 0 | 0.0%
O=C(NC1CCCC1)C1c2ccccc2C(=O)N1CCCN1CCOCC1 (configuration not stated)
    1% | -1% | -13 | 1.3%
Cc1cc(=O)[nH]c(N/N=C/c2ccccc2C(F)(F)F)n1
    -5% | -2% | 15 | 1.4%
CCOc1ccc(N(CC(=O)NCc2ccc(C)cc2)S(=O)(=O)c2c(C)[nH]c(=O)[nH]c2=O)cc1
    1% | 0%&1% | . | -2.2%
CCc1ccc(-c2csc(-c3c[nH]c4ccccc34)n2)cc1
    2% | -45% | 2 | -1.1%
COC(=O)[C@@]1(Cc2ccc(F)cc2)[C@H]2c3cc(C(=O)N(C)C)n(Cc4c(CO)[nH]cc(C)c4=O)c3C[C@H]2CN1C(=O)c1ccccc1
    -20% | -12% | 0&3 | 1.6%
COc1ccc(OC)c(-n2c(=S)[nH]c3cc(C(=O)N4CCN(c5ccccc5)CC4)ccc3c2=O)c1
    0% | 1% | 3 | 0.2%
CC(=O)N1CCN(c2ccc(NC(=O)c3ccccc3)cc2)CC1
    3% | -38% | . | 0.8%
COc1ccc(/C=C/c2nc(-c3ccccc3O)n(-c3ccccc3)n2)cc1
    -14% | -13% | 3 | -4.6%
NC(=O)c1sc2cc(C(F)(F)F)cnc2c1-c1ccccc1
    12% | 3% | -2 | 6.0%
CCCOc1ccc(CSc2n[nH]c(C)n2)cc1
    5% | -4% | -2 | -0.5%
COC(=O)NC(NC(=S)Nc1cccc(C)c1)C(Cl)(Cl)Cl (configuration not stated)
    -3% | 2% | -10 | 0.3%
CCCNCC1C(Oc2ccc(Cl)cc2Cl)C(=O)N1c1cccc(C)c1C (configuration not stated)
    2% | 19% | -9 | -5.2%
CC(=O)c1ccc(N2CCN(S(=O)(=O)c3cc(-c4cc(C)no4)ccc3C(C)C)CC2)cc1
    12% | -4% | . | -4.1%
Cc1ccc(S(=O)(=O)Nc2cccc(-c3cn4ccsc4n3)c2)cc1
    -3% | 22% | -3 | -0.2%
CCC(C)NC(=O)CC(c1ccccc1)c1cc(C)ccc1O (configuration not stated)
    -8% | 2% | 1 | 0.1%
CCOc1ccc(S(=O)(=O)N(C)C2CCCCC2)cc1
    12% | -4% | . | -4.1%
CCOC(=O)C1CCN(C(=O)CSCCSCC(=O)N2CCC(C(=O)OCC)CC2)CC1
    13% | -3% | 5 | 2.2%
CCc1ccc(N2CC(C(=O)Nc3ccc(C)c(S(=O)(=O)N4CCOCC4)c3)CC2=O)cc1 (configuration not stated)
    -3% | 22% | -17 | 6.0%
Cc1cc(OCCN2CCCC2)ccc1C(C)C
    -2% | -16% | -6 | 0.2%
Nc1nonc1C(=O)NCCNS(=O)(=O)c1ccc(Br)cc1
    -10% | -6% | 1 | -3.8%
CC(=O)Nc1ccc(NC(=O)CSc2nnc(-c3ccc4c(c3)OCO4)o2)cc1
    8% | . | . | -0.6%
Cc1cc(NC(=O)c2ccccc2)n(-c2nc3ccccc3[nH]2)n1
    18% | 12% | 4 | 3.9%
CC(C)CCOCC(O)CCC(=O)NNC(=S)Nc1ccccc1 (configuration not stated)
    4% | -20% | 3 | ?
Cc1c2c(nc3c(C(=O)NC4CC4)cnn13)CCCC2
    -4% | -57% | -6 | 4.9%
Cc1nc(-c2ccc(S(=O)(=O)Nc3cccc(Cl)c3)cc2)co1
    -6% | -4% | . | -2.4%
CCOC(=O)c1cc2c(=O)n3ccccc3nc2n(Cc2ccco2)c1=NC(=O)c1cccc(OC)c1
    ? | 0% | -3 | ?
CCOc1ccc(N(Cc2ccc(C(=O)O)cc2)S(=O)(=O)c2ccc(C)cc2)cc1
    -16% | 15% | . | -2.3%
Cc1ccccc1NC(=O)Cn1c(=O)n(C)c2ccccc21
    2% | -5% | -1 | 3.8%
O=C(CSc1ccc([N+](=O)[O-])cc1)Nc1cccc(S(=O)(=O)Nc2ccccc2F)c1
    1% | -6% | 1 | -4.5%
COc1cccc(CN(C)C(=O)C23CC4CC(CC(C4)C2)C3)c1
    13% | 1% | . | 0.3%
O=C(Nc1ccc([N+](=O)[O-])cc1)Nc1ccon1
    1% | 16% | . | -4.6%

An excerpt. The share of hits here may be higher or lower than overall.
